FPR: FPR binders displacing fluorescent formyl peptide, primary screen, U937-FPR cells, fMLFK-FITC, flow cytometry (AID 362) | U937-FPR cells, fMLFK-FITC displacement, flow cytometry; active compounds read high; test concentration not given here; most inactive calls were filed without a number and no value below 0 was filed | inhibition, % | 1% of 4,300 active;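 active = inhibition of labelled peptide binding to the formyl peptide receptor of at least 65%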;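 note: plate controls were buffer control wells for no effect and unlabeled fMLFF blocking peptide for full effect; higher means less cell fluorescence so more probe displaced; part of the set was picked by virtual screening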
* marks the source's active call; other numbers are inactive results; i = inactive. These rows are one share of the data; rates above refer to the full screens.

FPR	Molecule
i	CCCCn1c(CN2CCC(Cc3ccccc3)CC2)nc2c1c(=O)n(C)c(=O)n2C
52	CCN(CC)CCN(C(=O)c1ccc([N+](=O)[O-])cc1)C1CCCc2c1[nH]c1ccc(C)cc21 (configuration not stated)
i	CCc1ccc(NC(=O)CSc2nc3ccsc3c(=O)n2CC2CCC(C(=O)O)CC2)cc1 (configuration not stated)
i	COCCOC(=O)C1=C(C)NC2=C(C(=O)C(C(=O)OC)C(C)C2)C1c1cccc(OC)c1OC (configuration not stated)
i	CC(=O)Nc1ccc(S(=O)(=O)NCC2CCC(C(=O)NCCCOC(C)C)CC2)cc1 (configuration not stated)
i	O=C(C1CCC(CNS(=O)(=O)c2ccc(Cl)cc2)CC1)N1CCCCC1 (configuration not stated)
i	CCSc1nc2c(c(=O)n1C1CCOC(C)(C)C1)C1(CCCCC1)Cc1ccccc1-2 (configuration not stated)
8	CC1=C(C(=O)OC2CCCCC2)C(c2cccc(O)c2)C2=C(CC(c3ccc(Cl)cc3)CC2=O)N1 (configuration not stated)
4	NC(=O)NN=C1c2cc(S(=O)(=O)N3CCCCCC3)ccc2-c2ccc(S(=O)(=O)N3CCCCCC3)cc21
i	CCOC(=O)C1C(=O)C=C(c2ccc(C)cc2)CC1c1cccc([N+](=O)[O-])c1 (configuration not stated)
i	COCCNC(=O)C1CCC(CNS(=O)(=O)c2c(C)cc(C)cc2C)CC1 (configuration not stated)
17	COc1ccc(C2(CNC(=O)c3ccc(OC)c([N+](=O)[O-])c3)CCCC2)cc1OC
i	CCOc1ccc(C2C(=O)N(C3CCCCCC3)CC(=O)N2C2CCCc3ccccc32)cc1OC (configuration not stated)
i	O=C(NCCCN1CCC(Cc2ccccc2)CC1)C1CCC(CNS(=O)(=O)c2ccccc2)CC1 (configuration not stated)
i	COc1ccc2c(c1)N(C(=O)CN1C(=O)C3CCCCC3C1=O)C(C)(C)C=C2C (configuration not stated)
3	COc1ccccc1NC(=O)C(CC(C)C)NC(=O)C1CCCCC1 (configuration not stated)
3	CCOC(=O)c1ccc2c(c1)C1C=CCC1C(c1cccc([N+](=O)[O-])c1)N2 (configuration not stated)
i	CCC(=O)N1CCc2cc(S(=O)(=O)NC(CC(C)C)C(=O)N3CCOCC3)ccc21 (configuration not stated)
12	Cc1ccc(S(=O)(=O)Cc2ccc(C(=O)N3CCCCCC3)o2)cc1
i	CN1CCN(Cc2c(O)ccc3c(=O)c(Oc4ccc(-c5ccccc5)cc4)c(C(F)(F)F)oc23)CC1
i	COCCOC(=O)C1=C(N)OC2=C(C(=O)CC(C)(C)C2)C1c1ccc(Br)cc1 (configuration not stated)
i	Cc1ccc(NC(=O)C2CCC(CNS(=O)(=O)c3cccs3)CC2)cc1 (configuration not stated)
6	Cc1cc(C)nc(/N=C(\NC(=O)c2ccccc2)Nc2cc(C(F)(F)F)ccc2Cl)n1
i	O=C(CSc1c2c(nc3ccccc13)CCCC2)Nc1ccc2c(c1)OCCO2
2	COC(=O)c1ccc(COc2ccc3c(=O)c(Oc4cccc(C)c4)c(C(F)(F)F)oc3c2)cc1
13	COc1ccc(NC(=O)C2(c3ccc(OC)c(OC)c3)CCCC2)cc1
16	Cn1c2ccccc2c2c(C(=O)O)cn(C3CCCCC3)c(=O)c21
1	CC1=CCC(C(=O)NCc2ccccc2)C(c2ccc([N+](=O)[O-])cc2)C1 (configuration not stated)
i	CCOC(=O)c1cc(-c2ccccc2)sc1NC(=O)C(CC(C)C)N1C(=O)c2ccccc2C1=O (configuration not stated)
i	CCOc1ccc(NC(=O)CSc2nc3ccccc3c(=O)n2CC2CCC(C(=O)NCC3CCCO3)CC2)cc1 (configuration not stated)
i	O=C1C2C3C=CC(C2C(=O)N1Cc1ccc(F)cc1)C1C(=O)N(Cc2ccc(F)cc2)C(=O)C31 (configuration not stated)
i	CCC(C)C(NC(=O)C1CCCN1C(=O)C(C)NC(=O)OC(C)(C)C)C(N)=O (configuration not stated)
2	COc1cccc(NC(=O)Cn2cnc3sc(C)c(S(=O)(=O)N4CCC(C)CC4)c3c2=O)c1
15	COc1ccc(Oc2c(C(F)(F)F)oc3c(CN4CCCCC4C)c(O)ccc3c2=O)cc1 (configuration not stated)
11	CC1=C(C(N)=O)C(C2CCCCC2)C(C#N)=C(N)O1 (configuration not stated)
i	CCCCN(CC)C(=O)c1sc2ncnc(N3CCc4ccccc4C3)c2c1C
i	COC(=O)C1C(=O)C2=C(CC1C)NC(C)=C(C(=O)OC1CCCC1)C2c1ccc(OC)cc1OC (configuration not stated)
20	CCOC(=O)C1=C(C)NC2=C(C(=O)C(C(=O)OC)C(C)C2)C1c1cccc([N+](=O)[O-])c1 (configuration not stated)
i	CCOC(=O)c1ccc2c(c1)C1C=CCC1C(C(=O)O)N2 (configuration not stated)
i	COc1cc2c(C(=O)NC3CCCCCC3)cn(CC(C)C)c(=O)c2cc1OC
52	N#CC1=C(SCC(=O)Nc2ccc(Cl)cc2)NC(=O)C(C#N)C12CCCCC2 (configuration not stated)
i	CCCCN(CC)C(=O)c1sc2nc(C)c(C(=O)Nc3ccc(C)cc3C)c(-c3ccc(C)o3)c2c1N
7	CCC(C)OC(=O)C1=C(C)NC2=C(C(=O)C(C(=O)OC)C(C)C2)C1c1ccc(N(CC)CC)cc1 (configuration not stated)
i	CC(C)CN(CC(C)C)S(=O)(=O)N1CCC(C(=O)NC2CCCCCC2)CC1
i	O=C(O)C1C2C=CC(C2)C1C(=O)N1CCN(Cc2ccccc2)CC1 (configuration not stated)
i	COc1cc2c(C(=O)NCCCN3CCCCCC3)cn(CC(C)C)c(=O)c2cc1OC
4	COc1ccc(C2NC(=O)NC(C)=C2C(=O)OC2CCCC2C)cc1 (configuration not stated)
i	Cc1cc(C)cc(Oc2coc3c(CN4CCCCCC4)c(O)ccc3c2=O)c1
5	CC(C)CN(CC(C)C)S(=O)(=O)c1ccc(C(=O)Nc2cccc(-c3nc4ccccc4[nH]3)c2)cc1
10	CCCCCOC(=O)C1=C(C)NC2=C(C(=O)CC(C)(C)C2)C1c1ccc(OC)c(OC)c1 (configuration not stated)
i	COc1ccc(C2(CNC(=O)Cc3ccccc3)CCOCC2)cc1
9	CCCOc1ccc(C2C(C(=O)OC3CCCCC3)=C(C)NC3=C2C(=O)C(C(=O)OC)C(C)C3)cc1 (configuration not stated)
i	CC1=CC(C)C2(COC(=O)Nc3ccccc3)COC(C)C1C2C (configuration not stated)
i	COC(=O)COc1cc2oc(=O)c3c(c2cc1Cl)CCC3
i	CCCCCCCC1C(O)CC(c2ccc(OC)cc2)NC1c1ccc(OC)cc1 (configuration not stated)
7	O=c1[nH]c(=O)c2sc3nc(-c4ccncc4)cc(C(F)(F)F)c3c2[nH]1

Continuation.
FPR	Molecule
i	Cc1ccc(-c2csc(NC(=O)C(C(C)C)N3C(=O)c4ccccc4C3=O)n2)cc1 (configuration not stated)
4	CC(C)CCn1c(SCC(=O)Nc2ccccc2C(F)(F)F)nc2ccsc2c1=O
i	COc1ccc(OC)c(N2C(N)=NC(N)=NC23CCCC3)c1
22	CC(C)(C)c1cc(C(=O)CSc2nnnn2-c2ccccc2)cc(C(C)(C)C)c1O
i	COc1ccc(N2CCN(C(=O)c3cn(CC(C)C)c(=O)c4cc(OC)c(OC)cc34)CC2)cc1
5	CC(C)(C)c1cc(C(=O)CSc2nncn2-c2ccccc2)cc(C(C)(C)C)c1O
3	CCSCCOC(=O)C1=C(C)NC2=C(C(=O)C(C(=O)OC)C(C)C2)C1c1ccccc1F (configuration not stated)
24	CCOCCOC(=O)C1=C(C)NC2=C(C(=O)C(C(=O)OC)C(C)C2)C1c1ccc(OC)c(O)c1 (configuration not stated)
i	COc1ccc(NC(=O)N2c3ccc(OC)cc3C(C)=CC2(C)C)cc1
16	CCOC(=O)C(C(=O)OCC)c1ccc2cccc(O)c2n1
i	CCOc1ccccc1NC1=CC(=O)CC(C)(C)C1
i	CCCOc1ccc(C2NC(=O)NC(C)=C2C(=O)OC2CCCC(C)C2)cc1 (configuration not stated)
i	CCOC(=O)C1=C(C)NC(=O)NC1C1CC=CCC1 (configuration not stated)
i	COc1ccc(/C=C2\CC(C)C/C(=C\c3ccc(OC)c(OC)c3OC)C2=O)c(OC)c1OC (configuration not stated)
i	CC(C)C(NC(=O)C1CCCCC1)C(=O)Nc1ccccn1 (configuration not stated)
i	CC(=O)Oc1ccc2oc(=O)c3c(c2c1)CCCN3
i	COc1cc2c(C(=O)N3CCN(c4ccc(F)cc4)CC3)cn(CC(C)C)c(=O)c2cc1OC
i	CC1(C)CC(=O)C2=C(C1)OC(N)=C(C#N)C2c1ccc(-c2cc([N+](=O)[O-])ccc2Cl)o1 (configuration not stated)
i	CC1(C)CC(=O)C2=C(C1)Nc1ncnn1C2c1ccc(Br)cc1 (configuration not stated)
5	COC(=O)C1C(=O)C2=C(CC1C)NC(C)=C(C(=O)OC1CCCCC1)C2c1cccc(F)c1 (configuration not stated)
16	CCCC1=C(C(=O)OCC)C(c2cccnc2)C(C#N)=C(N)O1 (configuration not stated)
0	COC(=O)C1=C(N)OC2=C(C(=O)CC(C)(C)C2)C1c1ccccc1OCc1ccccc1 (configuration not stated)
i	Cc1ccc(S(=O)(=O)NCC2CCC(C(=O)NCc3ccc4c(c3)OCO4)CC2)cc1 (configuration not stated)
i	O=C(c1ccc2c(c1)OCO2)N(Cc1ccco1)C1(C(=O)NC2CCCC2)CCCCC1

Three structures out of the list, ordered by length of the SMILES, smallest number first.
FPR	Molecule
16	CCCC1=C(C(=O)OCC)C(c2cccnc2)C(C#N)=C(N)O1 (configuration not stated)
i	Cc1ccc(S(=O)(=O)NCC2CCC(C(=O)NCc3ccc4c(c3)OCO4)CC2)cc1 (configuration not stated)
i	COc1cc2c(C(=O)N3CCN(c4ccc(F)cc4)CC3)cn(CC(C)C)c(=O)c2cc1OC

(cont.)
FPR	Molecule
i	COC(=O)C1C(=O)C2=C(CC1C)NC(C)=C(C(=O)OC1CCCCC1)C2c1ccc(C)cc1 (configuration not stated)
i	COc1ccc(C2CC(C(F)(F)F)n3nc(C(=O)N(C)CCC#N)cc3N2)cc1OC (configuration not stated)
i	COC(=O)CSc1nc(-c2ccccc2)nc2c1CCCC2
i	CCCCCCCOC(=O)C1=C(C)NC(=O)NC1c1ccc(OC)cc1 (configuration not stated)
5	CCCOC(=O)C1=C(C)NC2=C(C(=O)C(C(=O)OC)C(C)C2)C1c1ccc(O)cc1 (configuration not stated)
i	CCCC1=C(C(=O)OCC)C(c2ccccc2OCC)NC(=O)N1C (configuration not stated)
2	COc1ccc(C2C3=C(CC(C)(C)CC3=O)OC3=C2C(=O)CC(C)(C)C3)cc1CN1CCOCC1
6	CCOc1ccccc1NC(=O)C(CC(C)C)NC(=O)C1CCCCC1 (configuration not stated)
14	COc1ccccc1-c1c(C(F)(F)F)oc2c(CN3CCCCCC3)c(O)ccc2c1=O
i	Cc1sc2ncn(CC(=O)N3CC(C)CC(C)C3)c(=O)c2c1S(=O)(=O)N1CCC(C)CC1 (configuration not stated)
10	CCOC(=O)C1=C(N)OC2=C(C(=O)CC(C)(C)C2)C1c1c(F)cccc1Cl (configuration not stated)
41	CC(=O)N(C)C1(c2nnnn2CCOC(=O)Nc2ccc(Cl)cc2)CCCCC1
i	COc1ccc(NC(=O)CCCCCn2c(SCC(=O)NCC3CCCO3)nc3ccsc3c2=O)cc1 (configuration not stated)
i	C/C=C/COC(=O)C1=C(C)NC(=O)NC1c1ccc(O)c(OC)c1 (configuration not stated)
15	COC(=O)C1C(=O)C2=C(CC1C)NC(C)=C(C(=O)OC1CCCCC1)C2c1ccc(O)cc1 (configuration not stated)
i	CCc1cc2c3c(c(=O)oc2cc1OCc1cc(C(=O)OC)oc1C)CCCC3

A portion from the list above:
FPR	Molecule
i	COC(=O)C1C(=O)C2=C(CC1C)NC(C)=C(C(=O)OC1CCCCC1)C2c1ccc(C)cc1 (configuration not stated)
i	COc1ccc(C2CC(C(F)(F)F)n3nc(C(=O)N(C)CCC#N)cc3N2)cc1OC (configuration not stated)
i	COC(=O)CSc1nc(-c2ccccc2)nc2c1CCCC2
i	CCCCCCCOC(=O)C1=C(C)NC(=O)NC1c1ccc(OC)cc1 (configuration not stated)
5	CCCOC(=O)C1=C(C)NC2=C(C(=O)C(C(=O)OC)C(C)C2)C1c1ccc(O)cc1 (configuration not stated)
i	CCCC1=C(C(=O)OCC)C(c2ccccc2OCC)NC(=O)N1C (configuration not stated)
2	COc1ccc(C2C3=C(CC(C)(C)CC3=O)OC3=C2C(=O)CC(C)(C)C3)cc1CN1CCOCC1
6	CCOc1ccccc1NC(=O)C(CC(C)C)NC(=O)C1CCCCC1 (configuration not stated)
14	COc1ccccc1-c1c(C(F)(F)F)oc2c(CN3CCCCCC3)c(O)ccc2c1=O
i	Cc1sc2ncn(CC(=O)N3CC(C)CC(C)C3)c(=O)c2c1S(=O)(=O)N1CCC(C)CC1 (configuration not stated)
10	CCOC(=O)C1=C(N)OC2=C(C(=O)CC(C)(C)C2)C1c1c(F)cccc1Cl (configuration not stated)
41	CC(=O)N(C)C1(c2nnnn2CCOC(=O)Nc2ccc(Cl)cc2)CCCCC1
i	COc1ccc(NC(=O)CCCCCn2c(SCC(=O)NCC3CCCO3)nc3ccsc3c2=O)cc1 (configuration not stated)
i	C/C=C/COC(=O)C1=C(C)NC(=O)NC1c1ccc(O)c(OC)c1 (configuration not stated)

Remaining list, next part
FPR	Molecule
4	CCOC(=O)C1=C(C)NC2=C(C(=O)C(C(=O)OC)C(C)C2)C1c1cccc(OCc2ccccc2)c1 (configuration not stated)
i	c1ccc2c(c1)CC1(CCCCC1)n1c(-c3ccncc3)nnc1-2
i	CCOC(=O)c1cc2c(=O)n3ccccc3nc2n(CC(C)C)c1=NC(=O)c1ccco1
i	NC(=O)C1CCN(C(=O)C2CCC(CNS(=O)(=O)c3ccccc3)CC2)CC1 (configuration not stated)
i	COc1cccc2c1OC1(CCC(C)CC1)N1N=C(c3cccs3)CC21 (configuration not stated)
i	CCOC(=O)c1cc2c(=O)n3ccccc3nc2n(CC(C)C)c1=NC(=O)c1ccc(F)c(F)c1
7	N#Cc1c(NC(=O)C2CC(=O)OC23CCCCC3)sc2c1CCCC2 (configuration not stated)
i	CC(=O)c1cccc(NC(=O)C2C3CCC(C3)C2C(=O)O)c1 (configuration not stated)
i	Cc1ccc(-c2cc(C(F)(F)F)c3c(n2)sc2c(O)cc(=O)[nH]c23)cc1

Screening results as filed in PubChem.
